From PubChem
KCNQ2 pot: potentiators of rat KCNQ2 potassium channel. Potassium voltage-gated channel subfamily KQT member 2 (Rattus norvegicus), O88943. B-score at 10 µM. CHO-K1 KCNQ2, FluxOR thallium flux fluorescence; stronger effect = higher value. actives 0.54% (n = 310,000). AID 2239, 2010;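 active = fluorescence ratio B-score at least 3 SD of library B-scores, with initial fluorescence B-score within 3 SD, cut at about 5.3 in these data; same plate scores as AID 2156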;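 note: B-score of peak minus minimum over baseline fluorescence ratio after K+ and Tl+ stimulus; positive B-score means potentiation of KCNQ2 with more thallium influx and brighter signal; only the inactives scoring about 0 or higher are listed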
Target sequence (O88943 whole entry, looked up): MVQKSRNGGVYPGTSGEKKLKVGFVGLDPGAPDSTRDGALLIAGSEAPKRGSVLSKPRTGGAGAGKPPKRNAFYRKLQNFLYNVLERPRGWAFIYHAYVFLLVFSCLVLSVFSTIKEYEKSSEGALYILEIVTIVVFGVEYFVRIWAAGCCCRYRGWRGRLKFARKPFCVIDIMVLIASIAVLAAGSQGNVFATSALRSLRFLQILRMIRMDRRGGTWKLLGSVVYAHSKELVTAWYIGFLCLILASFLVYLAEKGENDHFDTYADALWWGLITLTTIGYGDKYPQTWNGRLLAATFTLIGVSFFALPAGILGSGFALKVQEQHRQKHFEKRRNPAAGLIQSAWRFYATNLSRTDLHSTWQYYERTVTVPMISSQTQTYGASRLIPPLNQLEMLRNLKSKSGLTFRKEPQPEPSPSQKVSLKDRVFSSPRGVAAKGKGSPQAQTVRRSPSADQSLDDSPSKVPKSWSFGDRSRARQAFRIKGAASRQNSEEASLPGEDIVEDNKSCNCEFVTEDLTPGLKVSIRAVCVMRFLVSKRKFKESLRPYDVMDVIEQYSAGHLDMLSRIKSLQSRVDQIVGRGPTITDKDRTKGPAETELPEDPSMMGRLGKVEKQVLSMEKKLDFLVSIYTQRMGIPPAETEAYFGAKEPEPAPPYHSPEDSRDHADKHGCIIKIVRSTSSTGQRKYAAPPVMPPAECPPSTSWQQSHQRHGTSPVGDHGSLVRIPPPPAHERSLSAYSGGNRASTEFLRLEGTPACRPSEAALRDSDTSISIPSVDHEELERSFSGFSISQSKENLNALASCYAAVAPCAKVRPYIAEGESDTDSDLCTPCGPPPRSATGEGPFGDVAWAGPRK
KCNQ2 pot baseline: recorded beside KCNQ2 pot, whose call it bears; B-score; compound at 10 µM; measured here: initial fluorescence intensity artifact check;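 brightness before thallium and not channel activity; 0 = typical well and far values either way flag optical interference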
* marks the source's active call; other numbers are inactive results. Only part of the results is shown, so the mix of outcomes need not match the whole.

SMILES	KCNQ2 pot	KCNQ2 pot baseline
CCOC(=O)c1ccc(NC(=O)CSc2nnc(CNc3ccc(C)cc3)n2C)cc1	0.27	0.92
COC(=O)c1ccc(COc2ccc(/C=N/NC(=O)C(=O)Nc3ccc(OC)cc3)cc2OC)o1	0.74	0.18
COc1ccc(Br)cc1/C=C/C(=O)Nc1ccc2ccccc2c1	0.02	-0.05
CCn1nc(C)c(CNC(=O)CCc2nnc(Cc3c[nH]c4ccccc34)o2)c1C	0.16	0.2
COc1nnc(-c2ccc(C)c(S(=O)(=O)NCCO)c2)c2ccccc12	1.8	0
CC1CCN(C(=O)CSc2ccc(-c3cccc([N+](=O)[O-])c3)nn2)CC1	0.56	-0.49
CC(C)(C)n1nnnc1C(c1cccs1)N1CCN(c2ccccc2)CC1 (stereo not given)	0.66	0.51
Cc1ccc(C(=O)NCc2ccccc2)c(F)c1F	1.1	1.6
CC/C(=N\NC(=O)c1ccccc1Cl)c1ccc(Br)s1	0.96	-0.13
O=C1Nc2ccc(F)cc2C12Nc1ccccc1-c1nnc(SCc3ccccc3Cl)nc1O2 (stereo not given)	1.5	-2
CCOC(=O)c1[nH]c(C)c(C(=O)N2CCCC(Nc3ccc(C)c(C)c3)C2)c1C (stereo not given)	1.6	-0.04
N#Cc1c(N2CCCCC2)nc(N)c2c(N)nc3c(c12)CC(CCl)O3 (stereo not given)	1.1	0.88
COc1ccc(C(CC(=O)O)NC(=O)COc2ccccc2)cc1 (stereo not given)	0.02	0.82
CCOc1ccc(NC(=O)CN(c2cc(C)cc(C)c2)S(=O)(=O)c2c(C)noc2C)cc1	1.1	-0.21
Cc1cc(C)n(-c2nc(O)cc(=O)[nH]2)n1	1.6	-0.12
CCOc1ccc(NC(=S)N2CCN(S(=O)(=O)c3ccc(OC)cc3)CC2)cc1	0.46	0.04
Cc1cc(C)c(C(=O)CSc2n[nH]c(-c3ccncc3)n2)c(C)c1	0.89	-0.15
Cc1cccc(-c2c(NC(=O)c3ccco3)oc3ccc(Cl)cc3c2=O)c1	1.6	-1.4
C=CCN1C(=O)c2ccc(C(=O)N3CCN(S(=O)(=O)c4cc(C)ccc4C)CC3)cc2C1=O	0.04	0.27
Cc1ccnc(NS(=O)(=O)c2ccc(NC(=O)c3cc(-c4ccccc4)nc4ccccc34)cc2)n1	0.04	-2.4
COc1ccc2cc(/C=N/NC(=O)CSCc3ccc([N+](=O)[O-])cc3)c(Cl)nc2c1	0.08	1.8
O=[N+]([O-])c1cc(C(F)(F)F)ccc1N1CCN(CCO)CC1	0.05	-1.1
COc1ccc2c(=O)c(C(=O)NCCc3ccccc3)c[nH]c2c1	1.1	-0.11
Cc1cc(C)c2nc(SCC(=O)NCC3CCCO3)c(C#N)cc2c1 (stereo not given)	0.87	0.89
NS(=O)(=O)c1cccc(NC(=O)CN2CCC(Cc3ccccc3)CC2)c1	0.09	-0.78

Further structures follow:
SMILES	KCNQ2 pot	KCNQ2 pot baseline
CCn1c(=O)[nH]c2cc(C(=O)Nc3cc(C)cc(C)c3)ccc2c1=O	2.4	-0.8
O=C(O)c1cc(NC(=O)c2ccc3c(c2)C(=O)N(Cc2ccccc2)C3=O)cc(C(=O)O)c1	1	-0.11
O=C1c2ccccc2C(Nc2ccc(S(=O)(=O)N3CCCCC3)cc2)N1Cc1ccco1 (stereo not given)	0.64	-0.64
CCOC(=O)C1CCN(C(=O)Nc2c(-c3ccccc3)noc2C)CC1	1	-0.15
O=c1cc(O)n(-c2ccccc2F)c(=S)[nH]1	1	-1.1
COc1ccc(C(=O)O/N=C(/C)c2cccs2)cc1	0.23	0.65
CC(=O)N(c1ccc(Br)cc1)C1C=CS(=O)(=O)C1 (stereo not given)	0.45	0
O=C1c2ccccc2C(=O)N1CC(O)Cn1nnc2ccccc21 (stereo not given)	1.1	0.94
N#CC1(NC(=O)COc2ccc(S(=O)(=O)N3CCCC3)cc2[N+](=O)[O-])CCCCC1	1.3	-0.2
O=C(c1ccccc1)N1CCN(C(=O)c2ccccc2Br)CC1	1.6	-2.1
S=c1[nH]cnc2scc(-c3ccccc3)c12	11*	-0.2*
COC(=O)c1ccc(C23CC4(C2)[C@H](CN(CC2CCCCC2)[C@@H]4c2ccccc2)C3c2ccc(C(F)(F)F)cc2)cc1 (stereo not given in full)	0.25	-0.18
O=C(NCC1CCCO1)c1ccc[nH]1 (stereo not given)	1.2	1.1
Cc1ccc(S(=O)(=O)c2cc(C#N)c(=O)[nH]c2N)cc1	0.51	-0.01
CC(C)CCNC(=O)c1ccc(Cl)c(N)c1	0.5	0.19
O=C(NCc1ccccc1Cl)c1ccncc1	0.2	0.91
Cc1ccc(S(=O)(=O)N=Nc2c(O)[nH]c3ccccc23)cc1	0.06	0.8
O=C(Nc1ccc(Cl)cn1)c1ccccc1F	0.27	1
Cc1ccnc(Nc2nc(-c3ccc(Cl)cc3)cs2)c1	0.01	-0.02
CCOC(=O)Cc1nn(CC)c(=O)c2ccccc12	0.09	-1
CCC(C)NC(=O)c1cc(-c2cccs2)nc2ccccc12 (stereo not given)	0.61	0.72
O=C(Nc1ccc(CN2CCOCC2)cc1)c1cccc(F)c1	0.05	-2.7
CS(=O)(=O)NNC(=O)c1csc(Cc2c(Cl)sc3ccc(Cl)cc23)n1	0.07	-0.96
CCn1c(SCC(=O)Nc2ccc(F)cc2)nnc1-c1cnccn1	0.1	0
COc1ccc(S(=O)(=O)N(C)CC(=O)NC2CCCCC2)cc1Cl	0.01	1.6

Going on with the list:
SMILES	KCNQ2 pot	KCNQ2 pot baseline
CCOC(=O)c1c(C)[nH]c(C(=O)CN2C(=O)C(=O)N(CC(C)C)C2=O)c1C	0.42	1.4
O=C(O)/C=C/c1ccc(S(=O)(=O)N(CCO)CCO)cc1	1.8	0.12
Cc1ccc(-c2cc(-c3cccs3)[nH]n2)c(O)c1	0.13	-1.1
O=C(CCCn1c(SCC(=O)Nc2ccccc2C(F)(F)F)nc2ccccc2c1=O)NCC1CCCO1 (stereo not given)	0.46	-1.9
COc1cc2c(cc1OC)C(C(=O)NCCN1CCOCC1)C1c3ccccc3CCN1C2=O (stereo not given)	0.69	1.1
COC(=O)CN(C(=S)Nc1ccc(Cl)cc1)C1CC(=O)N(c2ccc(OC)cc2)C1=O (stereo not given)	0.02	0.35
COc1ccc(NS(=O)(=O)c2cc(OC)ccc2NC(=O)c2cc(C)oc2C)cc1	0.09	-0.16
Cc1cc(NC(=O)CCC(=O)N(CCC(C)C)C(C(=O)NC2CCCC2)c2cccnc2)no1 (stereo not given)	0.61	0.14
Cn1c(CO)cnc1SCC(=O)c1ccc(F)cc1	0.07	-0.31
C/C(=N\NC(=O)c1ccncc1)c1cc2ccccc2o1	0.32	0.6
COc1ccccc1-c1c(C(F)(F)F)oc2cc(OCC(=O)Nc3ccccc3C(F)(F)F)ccc2c1=O	0.03	-0.09
COc1ccc(/C=N/N2C(=O)C3C4C=CC(C4)C3C2=O)cc1[N+](=O)[O-] (stereo not given)	0.35	-1.4
COc1ccc(CCNC(=O)CSc2ccc(-c3ccco3)nn2)cc1OC	1.2	-0.97
Cc1ccc(C(=O)N2CCN(c3ncccn3)CC2)c(C)c1	0.21	-1.1
CC(=O)NN1C(=O)/C(=C\c2ccc(C)cc2)SC1=S	0.06	2.8
COc1cc(NC(=O)C2CCCCN2)ccc1OCC(C)C (stereo not given)	0.02	-1.4
CCCCC1=CC2=CC(=O)C(C)(OC(=O)c3cccs3)C(=O)C2=CO1 (stereo not given)	0.22	-0.47
CCOc1ccc(NC(=O)CC2C(=O)N(c3cccc(OC)c3)C(=O)N2C(C)C)cc1 (stereo not given)	1.7	1.2
COc1ccc2[nH]c(O)c(NC(C)=O)c2c1	1.1	-0.88
CCc1nn2c(=O)cc(COc3ccc(/C=C4\C(=N)N5N=C(C)SC5=NC4=O)cc3)nc2s1	0.77	1.1
CCC1(CC)C(=O)NC(=O)NC1=NCCc1ccc(O)cc1	1.4	1.5
O=C(COC(=O)Cc1ccc(S(=O)(=O)N2CCOCC2)s1)NCCc1ccccc1	0.04	-2.1
Cc1ccc(NC(=S)NCc2ccccc2Cl)c(C)c1	0.03	-0.41
O=C(Nc1ccc(O)cc1)c1ccc(C(=O)c2ccccc2)o1	0.39	1.8
Cn1c(SCC(=O)c2ccc(F)cc2)nnc1-c1cnccn1	0.77	-1.3

(listing goes on)
SMILES	KCNQ2 pot	KCNQ2 pot baseline
CS/C(N)=N/N=C/c1cc(C)ccc1O	1.4	-0.07
CCOc1ccc(NCc2cccn2-c2nnc(N3CCC(C(=O)NCCCN4CC(C)CC(C)C4)CC3)s2)cc1 (stereo not given)	0.16	-0.31
CC1C(c2ccccc2)N(C)C(c2ccccc2)CC1(O)c1ccc(F)cc1 (stereo not given)	0.09	-0.59
CC1(C)CN(c2cccc(C#N)c2)C1=O	0.08	0.02
Cc1cccc(C)c1NC(=O)Cn1cnc2c(=O)n(C)c(=O)n(C)c21	2	1.9
COc1ccc(-c2noc(CCCC(=O)Nc3ccc(C(N)=O)cc3)n2)cc1	0.41	2
O=C(O)c1ccc(Cl)c(S(=O)(=O)N2CCCCCC2)c1	0.65	-0.35
CCN(CCn1cccn1)C(=O)c1cc(COc2cccc3cccnc23)on1	0.07	1.7
COCc1ccc(C(=O)N2CCCCC2C(=O)Nc2ccc(-n3nc(C)cc3C)cc2)o1 (stereo not given)	1.6	0.09
O=C(NCCOc1ccc(Cl)cc1)C(=O)NCC1CCCO1 (stereo not given)	0.93	0.95
Cc1ccc(-c2nc3c(c(=O)[nH]c(=O)n3Cc3ccccc3)n2Cc2ccccc2)o1	0.13	0.14
CC(C)Cc1ccc(C2=CSC3=NCCN23)cc1	0.43	1.7
CC(=O)N1N=C(c2ccc3nccnc3c2)CC1c1ccccc1 (stereo not given)	1.1	-0.86
Nc1nnc(SCC(=O)Nc2ccc(S(=O)(=O)N3CCOCC3)cc2)s1	2.1	-1.9
CC(C)=C(NC(=O)c1ccccc1)C(=O)Nc1ccc(C(=O)O)cc1	0.71	-0.4
O=C(O)CSc1ncnc2sc(-c3ccccc3)cc12	0.4	-0.62
Cc1ccn2c(CNCCn3nc(C)cc3C)c(C(=O)N3CCCCCC3)nc2c1	0.11	-1.2
CCOC(=O)C1CCN(c2ncnc3c(C)csc23)CC1	1.8	1.4
CCC/C(O)=C1\C(=O)CCCC1=NCCc1c(C)[nH]c2ccc(C)cc12	0.14	0.25
Cc1ccc(C(=O)CSc2nnc(CNc3nc(-c4ccccc4)cs3)n2C)cc1	0.33	-0.25
O=C(Nc1ccc2c(c1)OCCO2)C1CCN(S(=O)(=O)c2cccs2)CC1	1.4	-0.83
CCCn1c(C2CCCN2c2nc(-c3ccc(C)cc3)cs2)nc2cc(Cl)c(N3CCCCC3)cc21 (stereo not given)	13*	0.59*
Cc1cc(NCc2ccccc2)n2ncnc2n1	1.2	-1.2
NC(=O)CSc1nnc(-c2ccccn2)n1N	0.03	0.91
COc1ccc(-n2c(-c3cccc(OC)c3)nc(=S)c3c2CCCC3)cc1	1.5	-0.64

Following part.
SMILES	KCNQ2 pot	KCNQ2 pot baseline
O=C(Cc1ccc(Cl)cc1)Nc1ccccn1	1.3	0.1
CC(=O)Nc1ccc(S(=O)(=O)N(C)CC(=O)OC(C)C(=O)N(C)Cc2ccccc2)cc1 (stereo not given)	0.46	0.51
CCCn1c(=N)n(CC(O)COc2cccc(C)c2)c2ccccc21 (stereo not given)	0.86	-0.76
Cc1ccccc1-c1cc(-c2ccccc2O)on1	0.99	-0.12
CC1CCCC(C)N1CCCNC(=O)Cn1c(=O)c2cccn2c2cccnc21 (stereo not given)	0.57	-0.47
Cc1ccc(/C=N/N=C2/NC(=O)CS2)o1	0.1	1.1
CCN1CCN(CCNC(=O)CSCc2nc(-c3ccc(OC)c(OC)c3)oc2C)CC1	10*	-0.82*
O=c1c2c3c(sc2nc(NCCO)n1Cc1ccco1)CCCCC3	2.9	-0.68
Cc1ccc2c(cnn2C(=O)CCCC(=O)NC(C)c2ccccc2)c1 (stereo not given)	0.48	1.6
C=CCn1cc(/C=N/Nc2nc3ccccc3[nH]2)c2ccccc21	0.18	1.8
O=C(Cc1ccccc1)N/N=C/c1cc2c(cc1Cl)OCO2	1	0
CS(=O)(=O)c1ccc(Cl)c(NC(=O)COC(=O)c2cccc(S(=O)(=O)N3CCCCC3)c2)c1	1.9	2.3
